HSV augment: enhancers of HSV replication in host cells, fold increase, host cell viability; HSV replication augmentation in cells; maximum fold increase; 0.005% of 220,000 active; AID 1956, 2009;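 active = peak rise of 1.5-fold or more in the series; inconclusive = self-fluorescent or not available for retest; tested in PC3 cells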;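 also: first round at 10 µM; read as green reporter fluorescence; hits show the peak of a series up to 25 µM; 1 = signal of infected wells without compound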
GALR2 agonist: GALR2 receptor agonists, primary screen, cell-based. Galanin receptor type 2 (Homo sapiens), O43603. GALR2-expressing cells, agonist activation read-out. activation, %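 (tested at 5 µM)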. 0.48% of 140,000 active. AID 803, 2007;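 active = above mean plus 3 SD of all compounds, about 5% in these data, not always enough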;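 also: 0% = vehicle buffer wells and 100% = reference agonist at full effect; tested in CHO reporter cells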
Insulin prom inh: inhibitors of insulin promoter-driven GFP, primary screen, imaging, TRM-6 cells (human fetal islet line), eGFP reporter, cell count; inhibition, % at 2 µM; 0.9% of 130,000 active; reporter expression induced with tamoxifen; AID 1273, 2008;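 active = inhibition above the mean plus 3 SD, with well images judged a real hit on visual review, cut at about 60% in these data, passing the limit was not always enough; inconclusive = inhibition over the cutoff but images rejected on review; inactive = inhibition not above the cutoff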
RGS16-Gao: modulators of RGS16 binding to Galphao, primary screen, biochemical, human proteins, multiplexed bead flow cytometry | Regulator of G-protein signaling 16 (Homo sapiens) + Guanine nucleotide-binding protein … | bead-based flow cytometry RGS16-Galphao binding, fluorescence; actives lie on both sides | AID 1441, 2008 | 0.38% of 220,000 active | binding response (% of control), % at 10 µM;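 active = below 25% or above 175%, edge rows of some plates excepted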;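 also: Galphao activated by GDP with aluminum fluoride before binding; 100% = wells without compound and 0% = beads without RGS; some results beyond the cut were filed as inactive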
PKD1 kinase inh: inhibitors of human PKD1 kinase, biochemical, fluorescence polarization; 0.056% of 200,000 active; inhibition, %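 (about 10 µM by stock and volumes)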; PKD1 kinase fluorescence polarization assay;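 active = inhibition of 50% or more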;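 also: controls were vehicle for no effect and a reference inhibitor for full effect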
Target sequence (Q15139 whole entry, looked up): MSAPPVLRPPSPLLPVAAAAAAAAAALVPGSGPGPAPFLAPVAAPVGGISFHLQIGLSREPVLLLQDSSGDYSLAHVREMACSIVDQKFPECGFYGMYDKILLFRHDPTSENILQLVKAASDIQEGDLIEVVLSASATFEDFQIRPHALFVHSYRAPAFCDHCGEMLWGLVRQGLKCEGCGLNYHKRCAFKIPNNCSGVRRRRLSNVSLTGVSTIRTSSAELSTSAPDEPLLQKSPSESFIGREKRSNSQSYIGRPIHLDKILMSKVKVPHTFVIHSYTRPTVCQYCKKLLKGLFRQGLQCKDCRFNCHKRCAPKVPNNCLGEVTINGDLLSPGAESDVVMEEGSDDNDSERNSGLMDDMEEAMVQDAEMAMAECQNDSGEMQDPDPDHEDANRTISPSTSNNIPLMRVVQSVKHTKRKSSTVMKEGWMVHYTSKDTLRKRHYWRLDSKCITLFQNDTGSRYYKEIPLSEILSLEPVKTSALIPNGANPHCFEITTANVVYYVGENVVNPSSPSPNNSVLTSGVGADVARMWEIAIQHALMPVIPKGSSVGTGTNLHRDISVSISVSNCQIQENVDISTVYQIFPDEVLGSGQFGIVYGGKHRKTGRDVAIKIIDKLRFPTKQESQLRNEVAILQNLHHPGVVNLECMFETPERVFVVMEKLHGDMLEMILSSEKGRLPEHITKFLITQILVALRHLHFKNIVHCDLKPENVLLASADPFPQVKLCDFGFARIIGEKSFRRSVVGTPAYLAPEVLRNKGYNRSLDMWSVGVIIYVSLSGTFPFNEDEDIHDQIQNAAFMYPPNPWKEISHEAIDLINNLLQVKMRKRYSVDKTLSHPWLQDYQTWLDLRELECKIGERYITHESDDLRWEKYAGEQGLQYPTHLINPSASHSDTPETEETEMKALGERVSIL
Insulin prom inh cell count: also measured in Insulin prom inh; calls as there; normalized cell count, %; measured here: cell count, toxicity; reference of the scale not given here;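 cells exposed to compound for 48 h; stained nuclei by imaging scaled within each plate; lower means fewer cells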
HSV augment primary fold: further read-out of HSV augment, marked with its call; fold increase; compound at 10 µM; measured here: primary screen fold increase 10 uM; tested in PC3 cells;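 GFP signal in the first replicate; 1 = infected wells without compound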
* hit, by the source's call; i = inactive; ? = inconclusive; / = not tested or not shown.

Compound | HSV augment | HSV augment primary fold | GALR2 agonist | Insulin prom inh | Insulin prom inh cell count | RGS16-Gao | PKD1 kinase inh
CCOC(=O)c1sc(=S)n(C)c1NC(=O)c1ccccc1Cl | i | 0.99 | -0.4 | / | / | 107.9 | -3.8
O=C1CS/C(=N/N=C/c2ccncc2)N1 | i | 1.15 | / | / | / | 112.9 | /
Nc1nnc(SCC(=O)OCc2ccccc2)s1 | i | 0.98 | -0.3 | 12.0 | 176.5 | 82.6 | 1.0
O=C1NC2(CCCC2)N=C1c1ccc(Cl)cc1 | i | 0.96 | -1.2 | / | / | 101.1 | -6.3
CC(C)N1CCN(Cc2ccc(Sc3nncn3C)o2)CC1CCO (configuration not stated) | i | 0.86 | / | / | / | 102.0 | /
O=C(COc1ccc2ccccc2c1Br)NNC(=O)Nc1ccccc1 | i | 1.08 | -1.4 | / | / | 111.8 | 2.2
CCOC(=O)COc1ccc(C(=O)NC2CCCCC2)cc1 | i | 0.73 | -2.4 | 0.0 | 121.0 | 100.3 | -6.0
NC(=O)c1ccc(Cc2ncc(C(F)(F)F)cc2Cl)s1 | i | 0.87 | -1.2 | 34.4 | 82.9 | 101.8 | -2.8
Cc1ccc(C2CC(=O)Nc3cc4c(cc32)OCO4)o1 (configuration not stated) | i | 0.85 | -1.7 | -27.8 | 125.3 | 100.7 | -5.1
CC(C(=O)Nc1ccc2c(c1)OCO2)N1CCN(C)CC1 (configuration not stated) | i | 1.13 | / | / | / | 101.3 | /
O=c1oc2ccccc2cc1-c1nc2ccccc2o1 | i | 1.04 | -0.8 | -38.5 | 48.0 | 103.0 | -3.6
Cc1ccc2c(c1)nnn2C1CCN(C(=O)c2cccs2)CC1 | i | 1.09 | -0.2 | 66.7 | 211.2 | 101.0 | 3.7
Cc1sc2ncnc(N(C)Cc3ccco3)c2c1C | i | 1.03 | -1.9 | 34.3 | 103.7 | 98.6 | -5.3
CCOC(=O)C(Cc1ccccc1)C(=O)Nc1ccc(NC(=O)C(Cc2ccccc2)C(=O)OCC)cc1 (configuration not stated) | i | 1.04 | 0.4 | 23.5 | 137.4 | 100.5 | 5.3
COC(=O)c1ccc(NC(=O)Cn2nc(SC)n(N)c2=S)cc1 | i | 0.89 | -0.3 | -6.2 | 129.5 | 99.7 | -8.9
COCCOC(=O)c1c(C)oc2ccc(NS(=O)(=O)c3ccc(C)cc3)cc12 | i | 0.94 | / | / | / | 103.0 | /
CCCc1cc(=O)[nH]c(SCC(=O)NC(=O)OCC)n1 | / | / | -0.9 | 27.0 | 47.8 | 8.4 | -0.9
S=C(NCc1ccco1)Nc1ccc(Oc2ccccc2)cc1 | i | 0.98 | / | / | / | 96.4 | -3.8
O=C1N/C(=N\N=C\c2cccs2)SC1Cc1ccc(Cl)c(Cl)c1 (configuration not stated) | i | 0.98 | / | / | / | 97.0 | -3.5
Nc1nc(Cl)cc(-c2ccccc2)n1 | i | 0.75 | / | -38.9 | 10.8 | 101.5 | -3.3
Cc1cc(C)n(-c2ccc(C(=O)Nc3cccnc3Cl)cc2)n1 | i | 0.79 | / | / | / | 87.8 | -5.2
CSc1nc2c(C)c(C)c(C)c(C)c2[nH]1 | i | 0.99 | / | / | / | 106.1 | /
N#Cc1ccc(-c2ccc(OCC(=O)NCCCN3CCCC3=O)cc2)cc1 | i | 0.89 | / | / | / | 100.7 | -3.5
COc1cc2c(C(=O)NCc3ccc(C)o3)cn(CC(C)C)c(=O)c2cc1OC | i | 0.76 | -1.5 | / | / | 102.6 | -8.2
COc1ccc(/C=N/OC/C(O)=C(\C#N)c2nc3ccccc3[nH]2)cc1 | i | 0.87 | -2.0 | / | / | 97.2 | -3.7
CCC(=O)NCc1cc(-c2nn(C)c(=O)c3ccccc23)ccc1OC | i | 0.97 | / | 26.8 | 80.2 | 75.8 | -6.8
Cn1c(=O)c2c(nc(Br)n2Cc2nnc(N)s2)n(C)c1=O | i | 0.81 | / | / | / | 91.7 | /
O=C(CSc1ccc2ccccc2n1)N1CCC(c2noc3ccc(F)cc23)CC1 | i | 0.81 | -0.6 | 72.1 | 101.9 | 84.8 | -10.6
C/C(=N\NC(=O)c1c(C)nc2ccccn12)c1cccc([N+](=O)[O-])c1 | i | 1.08 | / | / | / | 99.7 | 0.0
O=C(Nc1ccc2nsnc2c1)N1CCCCCC1 | i | 1.03 | -1.7 | 58.1 | 84.2 | 108.9 | 2.7

Next part.
Compound | HSV augment | HSV augment primary fold | GALR2 agonist | Insulin prom inh | Insulin prom inh cell count | RGS16-Gao | PKD1 kinase inh
COc1ccc(C2SCC(=O)N2CCc2ccc(OC)c(OC)c2)cc1 (configuration not stated) | i | 0.78 | / | / | / | 85.5 | -4.7
CCc1c(C)nc2ncnn2c1NCc1cccs1 | i | 0.87 | -0.6 | 4.5 | 175.8 | 100.0 | -2.1
Cn1c(-c2csc(-c3cccc(C(F)(F)F)c3)n2)n[nH]c1=S | i | 0.93 | / | 28.2 | 162.1 | 102.7 | -9.8
CCn1c2ccccc2c2cc(NC(=O)c3cc(OC)cc(OC)c3)ccc21 | i | 0.62 | 0.9 | -150.0 | 10.4 | 82.7 | 7.0
Cc1ccc2nc(SCC(=O)Nc3ccc4sc(C)nc4c3)c(C#N)cc2c1 | ? | / | -4.3 | 45.2 | 115.3 | 99.7 | -10.2
CC1=CC(c2ccccc2)n2nc(N3C(=O)c4ccccc4C3=O)nc2N1 (configuration not stated) | i | 0.65 | -0.8 | -13.9 | 123.9 | 99.0 | -5.8
Cc1c(NS(=O)(=O)c2cc(Br)cc3c2N(C(=O)C2CC2)CC3)c(=O)n(-c2ccccc2)n1C | i | 0.88 | / | / | / | 106.8 | -10.2
COc1ccc(N2CCN(C(=O)CN(Cc3ccc(Cl)cc3)S(C)(=O)=O)CC2)cc1 | i | 0.96 | -3.8 | -13.0 | 92.2 | 70.4 | -6.6
COc1cccc(Nc2nc(NCC3CCCO3)c3ccccc3n2)c1 (configuration not stated) | i | 0.81 | -3.2 | 33.3 | 30.4 | 99.4 | 5.8
CCCCc1ccc(NC(=O)CC(C)(C)C)cc1 | i | 0.82 | -0.9 | 41.7 | 67.3 | 70.3 | -2.9
O=C(Nc1ccccc1C(=O)Nc1ccccc1C(=O)NCc1ccco1)c1ccco1 | / | / | -0.2 | 30.7 | 73.0 | 103.7 | -5.1
Cc1cc(NC(=O)c2cc(-c3cccnc3)nc3c(C)c(C)ccc23)no1 | i | 0.87 | -2.0 | -407.7 | 80.0 | 101.4 | -4.9
CCOC(=O)/C(=N/Nc1ccccc1)N1CCCc2ccccc21 | i | 1.15 | -1.9 | 44.4 | 121.1 | 105.8 | 2.5
COc1cc(/C=C2\SC(=O)N(c3ccc(Cl)cc3)C2=O)cc([N+](=O)[O-])c1O | i | 0.75 | / | / | / | 98.5 | -2.4
CC(C)(C)n1ncc2c(=O)n(Cc3ccc(Cl)c(Cl)c3)cnc21 | i | 1.04 | / | -8.3 | 46.6 | 101.6 | -5.6
CC1(C)C(C=C(Cl)Cl)C1C(=O)N(Cc1cccc(Cl)c1)C1CCS(=O)(=O)C1 (configuration not stated) | i | 0.91 | -0.6 | -37.9 | 68.9 | 97.8 | -3.5
CCCCC(CCC(=O)O)(C(=O)OCC)c1csc(Nc2ccc(OCC)cc2)n1 (configuration not stated) | i | 1.04 | / | / | / | 103.6 | /
Nc1c([N+](=O)[O-])c(=O)oc2ccccc12 | i | 0.88 | / | -45.5 | 92.6 | 113.5 | -4.2
Cc1cccc(NC(=S)NC(C)(C)CC(C)(C)C)c1 | i | 1.11 | / | / | / | 95.8 | -1.2
COc1cccc(NC(=O)N2CCCC2C(=O)Nc2ccc3c(c2)OCO3)c1 (configuration not stated) | i | 0.92 | -2.8 | / | / | 103.6 | -8.2
Cc1cccc(N2CCN(C(=O)Cn3ccc4ccccc4c3=O)CC2)c1C | i | 0.877 | 1.0 | 5.7 | 106.5 | 101.5 | 2.6
NC(=O)NC(=O)CSc1nc(C2CCCCC2)n(-c2ccccc2)n1 | i | 0.99 | 0.0 | -2.7 | 117.9 | 103.9 | -3.2
CCc1nnc(NC(=O)CSc2nc(-c3ccccc3)nc3ccccc23)s1 | i | 0.9 | -1.1 | / | / | 104.2 | -6.6
CC(/C=C/c1ccc2c(c1)OCO2)=N/NC(=O)CNc1ccc(C)cc1 | i | 0.94 | -3.4 | -3.3 | 130.3 | / | 5.4
O=C(CSc1nnnn1-c1cccc2c1CCCC2)NC1CCCC1 | i | 0.98 | -0.8 | 2.9 | 148.5 | 100.1 | -5.2
CCC(C)n1c(SC(C)C#N)nc2ccccc2c1=O (configuration not stated) | i | 0.8 | -1.5 | 20.0 | 125.3 | 99.9 | -5.6
CCCOc1ccccc1C(=O)NC(CO)C(=O)O (configuration not stated) | i | 0.86 | -2.8 | 41.7 | 115.2 | 103.2 | -5.9
c1ccc(OCCSc2nc3ccccc3[nH]2)cc1 | i | 1 | -2.0 | -53.5 | 59.8 | 85.3 | -10.5
O=C(O)CCC(C(=O)O)n1c(O)c(C2=c3ccccc3=NC2=O)sc1=S (configuration not stated) | i | 0.94 | -1.6 | / | / | 96.2 | -17.2
O=C(NC1CCCc2ccccc21)C1CCN(c2nnc(-n3cccc3)s2)CC1 (configuration not stated) | i | 1.06 | -0.3 | -185.7 | 89.0 | 102.2 | -0.9

Three entries out of the list above, sorted by the number in HSV augment primary fold, highest first.
mol	HSV augment primary fold
S=C(NCc1ccco1)Nc1ccc(Oc2ccccc2)cc1	0.98
CCc1nnc(NC(=O)CSc2nc(-c3ccccc3)nc3ccccc23)s1	0.9
Nc1c([N+](=O)[O-])c(=O)oc2ccccc12	0.88

The list goes on.
Compound | HSV augment | HSV augment primary fold | GALR2 agonist | Insulin prom inh | Insulin prom inh cell count | RGS16-Gao | PKD1 kinase inh
CCOC(=O)Cc1csc(N/N=C/c2ccccc2)n1 | i | 1.07 | 1.5 | -29.0 | 113.0 | 110.0 | -0.2
COc1c(Cl)cc(Cl)cc1C(=O)Nc1ccc(CN2CCCCC2)cc1 | i | 0.84 | / | -38.5 | 139.8 | 102.7 | 2.2
CCCn1c(-c2ccccc2)nc2c(=O)n(C)c(=O)[nH]c21 | / | / | 0.1 | -34.6 | 113.3 | 96.7 | -14.8
Cc1cc(C)nc(SCc2ccc(C(=O)N/N=C3\CC(C)CC(C)(C)C3)cc2)n1 (configuration not stated) | i | 0.94 | -0.3 | / | / | 105.3 | -11.0
Cc1[nH]nc2c1C1(CCN(Cc3ccccc3)CC1)C(C#N)=C(N)O2 | i | 0.84 | -1.6 | 0.0 | 87.5 | 167.1 | -17.5
O=C(CO/N=C/c1ccccc1Cl)N1CCCc2ccccc21 | i | 1 | -1.9 | / | / | 113.5 | -4.0
Cc1occc1-c1nnc(SCC(=O)Nc2nc3ccccc3s2)o1 | i | 1 | -0.3 | 46.1 | 122.0 | 63.4 | -3.7
Cc1ccc(-n2nc(C(=O)c3ccccc3)n3c(=O)c(Cc4ccccc4)nnc23)cc1 | i | 0.95 | -1.9 | -37.5 | 123.2 | 67.4 | 8.1
COc1ccc(S(=O)(=O)Nc2ccc(-n3cccc3)cc2)cc1 | i | 0.98 | / | / | / | 12.7* | -2.2
CCOCCCN1CN(Cc2ccco2)CNC1=S | i | 0.98 | / | -66.7 | 67.8 | 91.5 | -6.0
COC(=O)C(C)Sc1nc2c([nH]c3ccccc32)c(=O)n1C (configuration not stated) | i | 0.85 | -0.9 | 21.7 | 116.3 | 97.2 | -3.1
CCOC(=O)N1CCN(C(=O)CCNS(=O)(=O)c2ccc3c(c2)c(=O)n(C)c(=O)n3C)CC1 | i | 0.92 | / | -292.9 | 77.9 | 106.4 | -5.4

Entries shown so far with a tert-butyl group (three):
Compound | HSV augment | HSV augment primary fold | GALR2 agonist | Insulin prom inh | Insulin prom inh cell count | RGS16-Gao | PKD1 kinase inh
CCCCc1ccc(NC(=O)CC(C)(C)C)cc1 | i | 0.82 | -0.9 | 41.7 | 67.3 | 70.3 | -2.9
CC(C)(C)n1ncc2c(=O)n(Cc3ccc(Cl)c(Cl)c3)cnc21 | i | 1.04 | / | -8.3 | 46.6 | 101.6 | -5.6
Cc1cccc(NC(=S)NC(C)(C)CC(C)(C)C)c1 | i | 1.11 | / | / | / | 95.8 | -1.2

Screening results from PubChem.

The order is random, and some 1.3% of all compounds hit somewhere here.
